# TSHR agonist: qHTS Assay for Agonists of the Thyroid Stimulating Hormone Receptor; HEK293-CNG-TSHR cells (CNG channel as cAMP sensor), membrane potential dye, cAMP; 0.48% of 73,000 active; Thyrotropin receptor (Homo sapiens), P16473; Potency, µM (top dose mostly 57.1 µM), for the others: top-dose activation, actives largely listed as activators; active = well fitted activation curve of enough size with the parental cells flat; inconclusive = any curve in the parental cells; inactive = parental cells flat and receptor cells flat or falling; further: potency means the concentration at half of the fitted maximal effect; % of control where 0% means no effect; weak receptor curves with flat parental cells got no call and are not listed
# Target sequence (P16473 whole entry, looked up): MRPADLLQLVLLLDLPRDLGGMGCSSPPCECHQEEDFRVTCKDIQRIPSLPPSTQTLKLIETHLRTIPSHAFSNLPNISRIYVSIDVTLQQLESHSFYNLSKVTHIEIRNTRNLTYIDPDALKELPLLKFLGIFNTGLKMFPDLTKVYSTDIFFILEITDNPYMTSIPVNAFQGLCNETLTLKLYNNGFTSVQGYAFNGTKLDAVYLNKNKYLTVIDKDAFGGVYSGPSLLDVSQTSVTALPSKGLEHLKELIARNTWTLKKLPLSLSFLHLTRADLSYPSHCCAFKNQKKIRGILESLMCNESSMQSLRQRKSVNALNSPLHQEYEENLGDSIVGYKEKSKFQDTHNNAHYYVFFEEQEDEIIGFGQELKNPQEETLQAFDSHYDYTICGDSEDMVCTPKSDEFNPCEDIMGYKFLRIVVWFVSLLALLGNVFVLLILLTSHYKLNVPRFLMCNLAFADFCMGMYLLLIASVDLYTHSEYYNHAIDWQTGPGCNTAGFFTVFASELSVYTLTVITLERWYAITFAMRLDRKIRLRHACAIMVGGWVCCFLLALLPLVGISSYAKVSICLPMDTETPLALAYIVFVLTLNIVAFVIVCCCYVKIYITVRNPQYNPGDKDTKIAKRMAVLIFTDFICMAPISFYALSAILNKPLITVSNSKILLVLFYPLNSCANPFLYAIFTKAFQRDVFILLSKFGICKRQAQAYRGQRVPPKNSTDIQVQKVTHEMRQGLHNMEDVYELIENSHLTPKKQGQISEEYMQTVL
#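 cAMP rise detected as CNG-channel membrane depolarization by fluorescent dye (emission 590 nm), 30 min after compound, following 60 min dye loading containing 100 uM RO 20-1724 at room temperature. Cells: TSHR/CNG HEK 293, with parental CNG HEK 293 as control.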
# A488 autofl: qHTS Assay for Spectroscopic Profiling in A488 Spectral Region; compound autofluorescence, A488 spectral region, dye equivalency; active compounds read high; max dye equivalency, M; 0.1% of 59,000 active; AID 591, 2007; active = above 10 nM dye equivalent; inconclusive = 1 to 10 nM; inactive = 1 nM or less; about half of its hits are not listed in these tables;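 further: highest value over a series up to 38 µM; compound alone in buffer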
#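 Readout is A488 dye-equivalent concentration, calibrated by a per-plate six-point Alexa 488 series. Compounds in 100 mM Tris buffer pH 8.0 were incubated 15 min at room temperature. Plates were imaged using 480 nm excitation/540 nm emission filters.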
# A647 fluor: qHTS Assay for Spectroscopic Profiling in A647 Spectral Region; Compound fluorescence, A647 channel (570/671 nm), Tris buffer; max dye-equivalent concentration, M; 59,000 tested, under 10 active; active means above 1 µM dye equivalent; inconclusive means 0.1 to 1 µM; inactive means 0.1 µM or less;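 further: values scaled relative to a standard on each plate; highest value over a series up to 38 µM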
#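 Fluorescence read (570 nm ex, 671 nm em) after 15 min RT incubation of compounds in 100 mM Tris buffer, pH 8.0; values expressed as dye-equivalent concentration against a six-point A647 standard series on each plate.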
# AID923: qHTS Assay for Allosteric/Competitive Inhibitors of Caspase-1: Spectroscopic Profiling in AFC Spectral Region | compound fluorescence, AFC spectral region (405/520 nm); almost no hit is shown here | Potency, µM (series often up to 57.5 µM), inactives show at the top dose fluorescence increase, hits mostly activators | 1.1% of 75,000 active; active means well fitted activation curve with a large enough effect; inconclusive means small, poorly fitted or top-dose-only effect;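 further: potency means the concentration at half of the fitted maximal effect; 0% is about no effect; scaled to a free AFC standard on each plate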
#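 Baseline compound fluorescence (AFC region, 405 nm ex/520 nm em) taken from the intercept of kinetic reads with 50 nM caspase-1 and 5 uM Ac-WEHD-AFC; normalized to an on-plate AFC standard curve; compounds titrated up to 57 uM.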
# Resorufin fluor: qHTS Assay for Spectroscopic Profiling in Resorufin Spectral Region; Compound fluorescence, resorufin region 547/598 nm, buffer; active compounds read high; max dye-equivalent concentration, M; AID 588, 2007; 0.04% of 59,000 active; active = above 10 nM dye equivalent; inconclusive = 1 to 10 nM; inactive = 1 nM or less; a few of its hits are not listed in these tables; further: highest value over a series up to 38 µM
#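 Read-out: intrinsic compound fluorescence at ex 547/em 598 nm after 15 min at RT in pH 8.0 Tris (100 mM). Values expressed as resorufin-equivalent concentration from per-plate standard series.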
# The depositor's hits bear a star; i = inactive; u = inconclusive; x = not tested or not shown; & = joins results of further samples; [ ] = dose if it differs, or a comment. Only part of the results is shown; the hit share may differ from the screen's.
SMILES,TSHR agonist,A488 autofl,A647 fluor,AID923,Resorufin fluor
CCC(C)(C)n1nnnc1C(CC(C)C)N1CCC(C(N)=O)CC1 (stereo not drawn),-1%,i,5.6e-08,0.3%,i
COc1ccc(OCC(=O)OCCN2C(=O)c3ccccc3C2=O)cc1,7%,x,x,5.7%,x
CCOc1cccc(C2C(C#N)=C(N)Oc3cc(C)n(Cc4ccccn4)c(=O)c32)c1OCC (stereo not drawn),3%,i,1e-09,3.1%,i
CCOc1ccc2nc(SCC(=O)NCc3ccco3)sc2c1,18%,i,2.8e-08,-3.0%,i
Cc1cc(C(=O)OCC(=O)NC(=O)NC(C)(C)C)c(C)o1,-1%[11.4 µM],i,3.5e-09,-1.5%,i
CCN1C(=O)[C@H]2[C@H]3[C@H](O)[C@H](O)C/C(=N/OC)[C@@H]3CC[C@@H]2C1=O,-4%[11.4 µM],x,x,1.2%[11.5 µM],x
COCC(=O)OCn1nnc2ccccc2c1=O,10%,i,1e-09,-2.1%,i
CCN1CCN(c2nc3sc4c(c3c3ncnn23)CC(C)CC4)CC1 (stereo not drawn),u,i,1.8e-08,-1.2%,i
c1ccc(-c2nc3ccccc3c3nncn23)cc1,3%,i,3e-09,0.6%,i
CCc1ccccc1NC(=O)c1cnccn1,4%,i,2.2e-09,1.9%,i
CCCn1c(SCC(=O)Nc2nnc(-c3ccccc3)s2)nnc1-c1ccccn1,u,i,1.1e-08,-1.8%,i
COc1ccccc1CNC(=O)C1CCN(c2nc3ccccc3o2)CC1,2%,i,1e-09,1.7%,i
CC1=CC=CC2=NC(=O)CC(C)(C(=O)N(CC(=O)NC(C)C)C3CCCC3)N12 (stereo not drawn),-1%,i,1e-09,-0.1%,i
O=C(NC1CCN(C(=O)NC2CCCCC2)CC1)c1ccco1,5%,i,8e-09,-0.8%,i
CN(C)c1ccc(P(=O)(OC2CCCCC2)C(O)c2cccnc2)cc1 (stereo not drawn),3%,i,2.6e-08,0.3%,i
COc1ccc(C2Sc3nncn3N2Cc2ccc(C#N)cc2)cc1 (stereo not drawn),7%,i,1e-09,0.2%,i
CCOC(=O)c1c(C)n(C)c2ccc(OCC(O)Cn3nc(C)c(Br)c3C)cc12 (stereo not drawn),u,i,1e-08,-0.1%,i
CCOc1cc(C(=O)OCC(=O)c2c(C)[nH]c3ccccc23)ccc1OCC(=O)N1CCOCC1,22%,i,1.8e-08,-0.9%,i
O=C(O)C1CCCCC1C(=O)NCCc1ccccc1 (stereo not drawn),-5%,i,1.3e-08,0.2%,i
CC(=O)N1CCN(C(=O)CNc2cc(C(F)(F)F)ccc2OCC(F)(F)F)CC1,1%,i,1e-09,-0.4%,i
CC(C)NC(=O)N1CC[C@@]2(CCCN(C(=O)c3cc(C(F)(F)F)cc(C(F)(F)F)c3)C2)C1,0%,i,4.7e-09,1.7%,i
Cc1nnc2ccc(Oc3ccc(-c4ccccc4)cc3)nn12,u,i,4.5e-08,-2.7%,i
N#Cc1cccc(NC(=O)COc2ccc(-n3ccnc3)cc2)c1,19%,i,1.2e-08,-0.6%,i
Cc1onc(-c2ccccc2)c1C(=O)Nc1ccnn1C1CCCCC1,3%,i,2.9e-08,0.9%,i
CCc1nc(N2CCOCC2)c(C#N)c2c1CCCC2,x,i,3.1e-09,x,i

# Just Resorufin fluor, TSHR agonist and A647 fluor, for some of the entries so far:
molecule,Resorufin fluor,TSHR agonist,A647 fluor
Cc1onc(-c2ccccc2)c1C(=O)Nc1ccnn1C1CCCCC1,i,3%,2.9e-08
CCc1nc(N2CCOCC2)c(C#N)c2c1CCCC2,i,x,3.1e-09

# Next records follow:
SMILES,TSHR agonist,A488 autofl,A647 fluor,AID923,Resorufin fluor
COc1cc(-n2c3nc4ccccc4nc3c3c(=O)n(Cc4ccco4)cnc32)cc(OC)c1OC,x,i,5e-08,x,i
CCn1c(SCC(N)=O)nnc1-c1ccc(OC)c(OC)c1,0%,i,2.5e-08,1.1%,i
CCOC(=O)CN1C(=O)C(O)=C(C(C)=O)C1c1ccc(F)cc1 (stereo not drawn),6%,i,1e-09,-0.9%,i
CCOC(=O)Cn1c(CN2CC(C)OC(C)C2)nc2c1c(=O)n(C)c(=O)n2C (stereo not drawn),4µM*,x,x,-5.1%,x
N#Cc1c(-c2ccco2)nc(SCC(=O)Nc2cccc(Cl)c2)[nH]c1=O,6%[11.4 µM],i,1e-09,-0.7%,i
CC1CCN(S(=O)(=O)N2CCC(C(=O)N3CCC(N(C)CC4CCCO4)CC3)CC2)CC1 (stereo not drawn),0%,x,x,0.8%,x
N#Cc1cc(-c2ccccc2)nn1-c1ccccc1,23%,i,4.4e-08,0.4%,i
O=C(O)Cn1ccnc1,-7%,i,2.2e-08,-1.7%,i
CC(=O)C1=C(O)C=C2Oc3c(C(C)=O)c(O)c(C)c(O)c3[C@]2(C)C1=O,0%,i,1e-09,-1.4%,i
COC(=O)COc1ccc(S(=O)(=O)Nc2cc(OC)ccc2OC)cc1,39%,i,2.9e-08,1.7%,i
COc1cccc(N2CCN(CC(=O)NCc3cccs3)CC2)c1,0%,i,3.6e-09,1.3%,i
O=C(CN1C(=O)c2ccccc2C1=O)N1CCCCC1,3%,i,2.7e-08,-0.7%,i
Cn1c2c(c3ccccc31)CCSC2=O,u,i,1e-09,-0.4%,i
COC(=O)c1c(C)oc2cc(Br)c(OCC(=O)C(C)(C)C)cc12,21%,x,x,1.3%,x
CCOc1ccc(CCNC(=O)Cc2nn[nH]n2)cc1OCC,-4%,i,4.7e-08,0.2%,i
O=S(=O)(c1cccc2c(Cl)cccc12)N1CCCNCC1,8%&-15%,i,4.2e-08,-0.6%&-1.8%,i
CCCNC(=O)C1CC(=O)N(c2ccc(OCC(=O)Nc3cccc(C)c3C)cc2)C1 (stereo not drawn),-6%,x,x,-0.4%,x
CCOc1cc(S(=O)(=O)n2cc(-c3ccc(F)cc3)c(N)n2)cc(OCC)c1OCC,-7%,i,1e-09,-0.9%,i
CCOC(=O)c1sc(NC(=O)CSc2nnc(C(C)C)n2CC)nc1C,17%,i,8.4e-09,0.1%,i
CCOC(=O)N1CCN(S(=O)(=O)c2ccc3c(c2)CCN3C(=O)CC)CC1,2%,i,2.2e-08,4.6%,i
CCn1cc(C(=O)NCc2cccs2)c(=O)c2cc(S(=O)(=O)N3CCOCC3)ccc21,-1%,i,5e-09,0.4%,i
CC1Cc2ccccc2N1C(=O)C1CCCN1S(=O)(=O)c1ccc(Cl)cc1 (stereo not drawn),-2%,i,4.7e-08,0.2%,i
N#Cc1cn(CC(=O)NCc2cccnc2)c2ccccc12,-4%,i,1e-09,3.5%,i
Cn1nc(C(C)(C)C)cc1C(=O)NCc1ccc(N2CCCC2=O)cc1,u,i,1.9e-09,0.5%,i
COCCNc1nnc(SCC(=O)c2ccc3c(c2)OCO3)s1,-2%,i,3.8e-08,2.4%,i

# The list goes on.
SMILES,TSHR agonist,A488 autofl,A647 fluor,AID923,Resorufin fluor
Cc1ccc(NC(=O)Cn2nnc(C(=O)NCc3ccccc3)c2N)cc1C,-2%,i,2.7e-09,0.1%,i
CCOC(=O)c1[nH]cnc1C(=O)Nc1cccc(N)n1,-4%,i,5.2e-09,-3.7%,i
O=C(CSc1nc2c(c(=O)n1-c1ccccc1)SCC2)N1CCN(c2ccccc2)CC1,1%,x,x,-2.6%,x
CC(=O)NC1CC(C)(C)N(OC(C)=O)C(C)(C)C1,-5%,i,5.1e-09,-0.8%,i
CCOC(=O)N1CCN(C(=O)c2n[nH]c(=O)c3ccccc23)CC1,0%,i,2.9e-09,0.0%,i
CSCCC(NS(=O)(=O)/C=C/c1ccccc1)C(=O)N1CCC(C)CC1 (stereo not drawn),2%,i,4.4e-09,-3.1%,i
CC1CC(=O)C2=C(C1)OC(N)=C(C#N)C2c1coc2ccccc2c1=O (stereo not drawn),2%,x,x,4.8%,x
CCOc1ccc(-c2nnc(SCC(=O)N3CCN(c4ccccc4)CC3)o2)cc1,6%,x,x,-1.0%,x
CCC(=O)N1CCc2cc(S(=O)(=O)NC(C(=O)Nc3cccc(C)n3)C(C)C)ccc21 (stereo not drawn),0%,i,1.5e-09,2.0%,i
O=C(CN1C(=O)c2ccccc2S1(=O)=O)N1CCN(c2ccccc2)CC1,-6%,i,3.1e-08,-2.3%,i
Cc1cc(C(=O)Cn2nnc3ccccc3c2=O)c(C)n1-c1c(C)n(C)n(-c2ccccc2)c1=O,-10%,i,1.4e-08,1.0%,i
O=C(c1ccccc1/S(=N/S(=O)(=O)c1ccccc1)N1CCOCC1)N1CCOCC1 (stereo not drawn),1%,i,1.2e-08,-0.8%,i
COC(=O)CNC(=O)c1ccc(=O)oc1,u,i,2.8e-08,4.4%,i
CCCC(=O)Nc1ccc(OCC(O)CNC(C)C)c(C(C)=O)c1 (stereo not drawn),x,i,1e-09,-0.7%,i
COCCCNC(=O)C1CCN(S(=O)(=O)N(CC(C)C)CC(C)C)CC1,2%,i,2.1e-08,-0.5%,i
COc1ccc(NC(=O)CSc2nnc(-c3ccccn3)n2N)c(OC)c1,-8%,i,3.4e-08,-0.2%,i
CC1(C)Cc2[nH]c(=O)c(C#N)cc2CS1,x,i,3.1e-09,x,i
CCOC(=O)CNc1nc(-c2ccncc2)nc2ccccc12,9%,i,1.6e-09,-0.1%,i
COc1cccc(-n2c(C)c(C(C)=O)c(C(C)=O)c2C)c1,10%,i,1e-09,-0.1%,i
c1cncc(Oc2cccc(Oc3cccnc3)c2)c1,x,i,1e-09,x,i
O=C(/C=C/N1CCOCC1)c1cc2ccccc2o1,22%,x,x,0.9%,x
CCOC(=O)c1c(C)[nH]c(C(=O)OCc2c(C)noc2C)c1C,0%,i,8.2e-09,1.0%,i
CCN(C(=O)N(CC)c1ccccc1)c1ccccc1,u,x,x,-2.1%,x
CS(=O)(=O)Nc1cccc(-c2cncnc2NCc2cccs2)c1,7%,i,1e-09,-2.2%,i
CCc1nc(SCC(=O)Nc2c(C)n(C)n(-c3ccccc3)c2=O)n[nH]1,1%,i,1e-09,0.7%,i
O=C(Nc1nc2c(s1)CCCC2)c1cccs1,0%,i,1.6e-09,0.2%,i
O=C(c1cc(-c2ccccn2)nc2c(Cl)cccc12)N1CCN(C(=O)C2CCCO2)CC1 (stereo not drawn),-3%,i,1e-09,0.2%,i
O=C(CCNc1ccc(F)cc1)c1ccco1,-31%[inhibitor],i,1e-09,0.4%,i

# Reprinted at random: seven entries already listed, in no set order.
SMILES,TSHR agonist,A488 autofl,A647 fluor,AID923,Resorufin fluor
COCCCNC(=O)C1CCN(S(=O)(=O)N(CC(C)C)CC(C)C)CC1,2%,i,2.1e-08,-0.5%,i
CCN(C(=O)N(CC)c1ccccc1)c1ccccc1,u,x,x,-2.1%,x
c1cncc(Oc2cccc(Oc3cccnc3)c2)c1,x,i,1e-09,x,i
O=C(CSc1nc2c(c(=O)n1-c1ccccc1)SCC2)N1CCN(c2ccccc2)CC1,1%,x,x,-2.6%,x
O=C(Nc1nc2c(s1)CCCC2)c1cccs1,0%,i,1.6e-09,0.2%,i
CC(=O)NC1CC(C)(C)N(OC(C)=O)C(C)(C)C1,-5%,i,5.1e-09,-0.8%,i
CC1(C)Cc2[nH]c(=O)c(C#N)cc2CS1,x,i,3.1e-09,x,i

# High-throughput results: PubChem, National Center for Advancing Translational Sciences (NCATS)
